Menin MLL FP FL – qHTS Assay for Inhibitors Targeting the Menin-MLL Interaction in MLL Related Leukemias: Competition With Fluorescein Labeled MLL-derived Peptide; 290,000 tested, under 10 active; Fluorescence polarization, fluorescein-MLL peptide displacement from menin; FP activity change, % at 61.4 µM; inconclusive = falling polarisation curve, or a change in total fluorescence; inactive = total fluorescence flat and polarisation flat or rising; no compound was filed as active; the % refers to the polarisation; negative = inhibition;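 also: % of control where 0% means no effect; inhibitors lower the polarisation; unlabelled MLL peptide was the positive control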
TRPML1 agonist – qHTS for Agonists of the Human Mucolipin Transient Receptor Potential 1 (TRPML1); TRPML1-expressing cells, Ca2+ dye fluorescence, FDSS; host cell line not named in the record; reference of the full effect not given here; Mucolipin-1 (Homo sapiens), Q9GZU1; AID 624414, 2012; 410,000 tested, 0.12% active; activation, % (test concentration not listed); in the data active = activation above about 50%; inconclusive = about 30% to 50%; inactive = below about 30%; also: 0% is about no effect; the text of the record puts the active cut at 80%
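Tetracycline-induced TRPML1-DL cells are seeded and incubated overnight before loading with a no-wash Ca2+ dye and quencher. Agonist activity is taken from the 110 s fluorescence read following compound pin-transfer on an FDSS, before EC80 54-4 challenge.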
ClpP mod – qHTS Assay for Activators of ClpP; ATP-dependent Clp protease proteolytic subunit (Bacillus subtilis (strain 168)), P80244; purified B. subtilis ClpP, FRET peptide cleavage, 20 min; Potency, µM (top dose mostly 57.5 µM), without a hit: top-dose activity change, negative = active; 340,000 tested, 1.9% active; AID 651965, 2013; active = well fitted falling curve with a large enough effect; inconclusive = small, poorly fitted or top-dose-only effect; inactive = no such curve, though single readings can be large or run the other way; also: potency is read from the fitted curve at half-maximal effect; the source files actives as falling curves though it sought activators and does not explain the sign; nearly all actives have a fitted effect of over 65% in size; many hits overshoot -100%
Target sequence (P80244 whole entry, looked up): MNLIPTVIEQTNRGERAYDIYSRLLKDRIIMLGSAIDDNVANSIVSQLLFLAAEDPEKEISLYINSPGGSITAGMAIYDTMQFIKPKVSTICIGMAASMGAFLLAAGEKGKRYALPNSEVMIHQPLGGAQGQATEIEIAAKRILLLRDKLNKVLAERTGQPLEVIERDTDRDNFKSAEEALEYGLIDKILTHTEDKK
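ClpP 10 microg/mL final, pH 8 Tris/KCl buffer with BSA, glycerol, Tween-20; compound pinned in; FRET-FV substrate; RT 20 min; Ex320/Em430; ΔFRET vs ADEP 5.8 microM, DMSO, no enzyme.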
PINK1 modulator – A Quantitative High throughput Screen to Identify Chemical Modulators of PINK1 Expression. AID 624263, 2012. PINK1 immunofluorescence, high-content cytometry, 24 h. Potency, µM (highest dose often 76.6 µM), inactives show at the top dose activation (PINK1 increase), hits mostly activators. 410,000 tested, 0.2% active; active = well fitted activation curve with a large enough effect; inconclusive = small, poorly fitted or top-dose-only effect; inactive = flat fitted curve, though single readings scatter; cell line not stated here;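 also: potency is read from the fitted curve at half-maximal effect; % of control where 0% means no effect; nearly all actives have a fitted effect of over 65% in size; a mitochondrial uncoupler was the plate control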
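Stable cell line treated 24 h with compounds at 5 concentrations (CCCP controls), then fixed and immunostained for PINK1 plus nuclear and cell stains; PINK1 immunofluorescence quantified by laser-scanning microplate cytometry.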
Sfp PPTase inh – qHTS Assay for Inhibitors of Bacillus subtilis Sfp phosphopantetheinyl transferase (PPTase); 4'-phosphopantetheinyl transferase ffp (Bacillus subtilis), Q9F4F7; Biochemical Sfp PPTase activity, qHTS; Potency, µM, without a hit: max response, negative = inhibition, actives largely listed as inhibitors; 310,000 tested, 3.5% active; AID 1490, 2009; active = well fitted inhibition curve with a large enough effect; inconclusive = small, poorly fitted or top-dose-only effect, or another doubt; inactive = no such curve, though single readings can be large or run the other way;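 also: the enzyme is Sfp with the accession as filed and its product quenches rhodamine fluorescence; potency is read from the fitted curve at half-maximal effect; 0% = enzyme reaction without inhibitor and -100% = no enzyme wells; top concentration of the series not given in the record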
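Compounds were incubated with enzyme (final 15 nM) for 15 min at room temperature before substrate addition started the reaction. Fluorescence at 525 nm excitation, 598 nm emission was recorded immediately and after 30 minutes.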
TRPML1 blocker – qHTS for Inhibitors of the Human Mucolipin Transient Receptor Potential 1 (TRPML1); Mucolipin-1 (Homo sapiens), Q9GZU1; TRPML1-inducible cells, Ca2+ dye fluorescence, FDSS; stronger effect = lower value; inhibition of EC80 agonist-evoked calcium signal; activity change, negative = inhibition, % (concentration not given with the values); 390,000 tested, 0.02% active; in the data active means activity change below about -50%; inconclusive means about -30% to -50%; inactive means above about -30%;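 also: stimulus is agonist 54-4 at its EC80 concentration; % is scaled to controls: 0 for no effect and ±100 for the full control effect; compound concentration not given in the record; the text of the record puts the active cut at -80%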
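TRPML1-DL cells, Tet-induced overnight (~16 h, 37 °C) at 1,500 cells/well, were loaded with Ca8 no-wash dye plus quencher for 45-90 min at room temperature. Compounds were pinned during FDSS kinetic reading; agonist 54-4 at EC80 (4 uM final) then added.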
TRPV1 PAM – HTS Assay for Compounds that Act as Potentiators of the Vanilloid Receptor 1. Transient receptor potential cation channel subfamily V member 1 (Homo sapiens), Q8NER1. TRPV1-expressing cells, Fluo-8 calcium influx, capsaicin EC20 potentiation; host cell line not named in the record; control for the full effect not named in the record. potentiation, % at 8.33 µM. 320,000 tested, 0.02% active; active means potentiation above 80%; inconclusive means 30% to 80%; inactive means below 30%; also: 0% is about no effect
Target sequence (Q8NER1 whole entry, looked up): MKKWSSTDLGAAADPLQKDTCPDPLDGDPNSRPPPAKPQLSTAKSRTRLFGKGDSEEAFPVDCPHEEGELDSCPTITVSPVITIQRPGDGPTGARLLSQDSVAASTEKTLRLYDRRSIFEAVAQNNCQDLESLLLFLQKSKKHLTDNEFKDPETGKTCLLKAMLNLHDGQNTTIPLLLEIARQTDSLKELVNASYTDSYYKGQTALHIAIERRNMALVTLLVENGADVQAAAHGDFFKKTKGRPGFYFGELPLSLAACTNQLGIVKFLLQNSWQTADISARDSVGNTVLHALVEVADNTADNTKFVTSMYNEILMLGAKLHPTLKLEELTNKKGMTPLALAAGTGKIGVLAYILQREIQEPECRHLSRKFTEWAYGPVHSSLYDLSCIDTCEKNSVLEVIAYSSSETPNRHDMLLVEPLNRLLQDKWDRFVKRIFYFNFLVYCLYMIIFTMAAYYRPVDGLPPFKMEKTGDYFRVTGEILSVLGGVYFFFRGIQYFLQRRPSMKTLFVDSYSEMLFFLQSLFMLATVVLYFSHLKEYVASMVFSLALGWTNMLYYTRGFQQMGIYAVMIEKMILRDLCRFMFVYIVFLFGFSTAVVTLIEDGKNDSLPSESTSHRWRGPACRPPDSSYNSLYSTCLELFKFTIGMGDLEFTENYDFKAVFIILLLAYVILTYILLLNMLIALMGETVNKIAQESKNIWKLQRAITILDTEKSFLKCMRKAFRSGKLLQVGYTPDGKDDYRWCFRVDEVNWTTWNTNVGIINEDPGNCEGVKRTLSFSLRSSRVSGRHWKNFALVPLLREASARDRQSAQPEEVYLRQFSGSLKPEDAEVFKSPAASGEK
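TRPV1-expressing cells were cultured overnight at 35.5C and loaded with Fluo-8 calcium dye for 40 to 90 min at room temperature. After a 10 s baseline, compound was added and calcium influx was read kinetically for 3 min (ex 480/em 520 nm).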
* = called active by the depositor; ? = inconclusive; . = not tested or not shown; & = joins results of further samples; [ ] = remark or other dose. An excerpt (hit frequency here may not be typical).

mol | Menin MLL FP FL | TRPML1 agonist | ClpP mod | PINK1 modulator | Sfp PPTase inh | TRPML1 blocker | TRPV1 PAM
COc1cccc(/C=C2\N=C(c3cncc(Br)c3)OC2=O)c1 | 4.0 | -0.5 | -2.7% | 1.8% | 18% | 40 | 11
COc1ccc2[nH]cc(CCNCc3cccnc3)c2c1 | -1.6 | 0.0 | -0.6% | 0.1% | -10% | -2 | 2
O=C(CCNC(=O)N1C[C@H]2C[C@@H](C1)c1cccc(=O)n1C2)Nc1cccc(Cl)c1 | -3.4 | . | -1.8% | 1.5% | 13% | . | 1
CN1C(=O)CN=C(c2ccc[nH]2)c2cc(Cl)ccc21 (tested in a mixture with another compound) | . | -0.6 | -9.4% | 2.6% | . | 3 | .
COc1ccc(C(=O)Nc2ccc(Cl)cc2C(=O)c2ccccc2)c(OC)c1 | . | 1.2 | 0.1% | 1.6% | . | 8 | .
O=C(Cc1ccccc1)OCC(=O)c1ccccc1 | . | 0.5 | -1.1% | 0.1% | 6% | -11 | -10
CC(Cc1ccccc1)NC(=O)NC(C)Cc1ccccc1 (stereo not drawn) | 4.4 | -1.5 | -5.0% | 4.9% | 12% | 2 | 0
CC(=O)Nc1ccccc1C(=O)OCC(=O)c1cccc2ccccc12 | 2.1 | 2.7 | -0.8% | 3.4% | -16% | 2 | -10
CCOc1ccccc1NC(=O)N1CCC2(CC1)OCCO2 | 4.7 | -0.3 | -8.8% | 1.6% | 19% | 2 | -5
CCOC(=O)C1(c2ccccc2)CCN(CCc2ccc(NC(=O)CCC(=O)O)cc2)CC1 | . | -0.4 | . | 4.8% | . | -8 | .
O=C(Nc1ccccc1)N(Cc1ccc2c(c1)OCO2)C1CCN(Cc2ccccc2)CC1 | . | 3.7 | 0.6% | -0.8% | . | 18 | .
O=C(c1ccc2c(c1)OCO2)C1CCCN(Cc2c(F)cccc2Cl)C1 (stereo not drawn) | . | 1.1 | -3.4% | 1.8% | -4% | 10 | -11
Cn1c(O)c(C(c2ccccn2)c2c(O)n(C)c(=S)n(C)c2=O)c(=O)n(C)c1=S | -1.3 | 1.3 | -3.2% | 3.6% | ? | 5 | 23
CCn1c(P(C)(=O)O)nc2ccccc21 | -1.0 | -0.5 | 0.8% | -2.0% | -13% | 3 | 6
S=C(NCCc1ccccc1)N1Cc2ccccc2-n2nncc2C1 | . | -0.8 | -0.3% | 3.2% | . | 18 | .
N[C@@H](Cc1cc(I)c(O)c(I)c1)C(=O)O | 1.0 | -0.6&-0.3 | 0.0% | 0.7%&-1.3% | ? | 3&-4 | -3&6
CCN(CC)c1ccc(CC2C(=O)N(C)C(=O)N(C)C2=O)cc1 | ? | -0.1 | 8.9µM* | 1.0% | ? | 26 | -3
O=C1NC(=S)NC(=O)C1=Cc1c(Cl)cccc1Cl | . | 2.8 | . | -3.6% | . | 11 | .
CCCC1(CCC)C(=O)NC(=Nc2ccc(C)cc2)NC1=O | 5.1 | . | . | . | 9% | . | -13
CCOC(=O)C1(CCc2ccccc2)CCN(C(C)CSC)CC1 (stereo not drawn) | . | 1.9 | 0.6% | -0.6% | . | -16 | .
COC(=O)C1=C(c2ccc(S(C)(=O)=O)cc2)C[C@@H]2CC[C@H]1N2C(=O)N1CCC(O)CC1 | . | -0.4 | 1.9% | 0.2% | . | 0 | .
NCCc1ccc(S(=O)(=O)F)cc1 | -4.9 | 0.0 | 1.8% | 1.3% | . | -3 | -9
O=C(NCC1=C(c2ccc3ccccc3c2)C[C@@H]2CC[C@H]1N2Cc1ccco1)c1ccc([N+](=O)[O-])cc1 | . | 0.5 | -4.7% | ? | . | 34 | .
Fc1c(F)c(F)c(N2CCNCC2)c(F)c1F | 3.6 | 0.1 | 0.3% | -0.3% | ? | 6 | ?
O=C(N/N=C/c1c(O)n(Cc2ccccc2)c(=O)[nH]c1=O)c1ccccc1O | 8.6 | 1.6 | ? | ? | 0% | 5 | 6
Cc1ccccc1-[n+]1c(-c2ccccc2)cc(-c2ccccc2)cc1-c1ccccc1 | . | -0.5 | -27% | 10µM* | . | 11 | 23
O=C(c1cnccn1)N1CCC2(CC1)CN(Cc1ccncc1)C2 | 2.8 | . | . | -0.6% | 11% | . | .
O=[N+]([O-])c1ccc(C(c2ccc([N+](=O)[O-])cc2)c2ccc([N+](=O)[O-])cc2)cc1 | . | 1.1 | . | 23% | . | 0 | .
Cc1cccc(-n2c(O)c(/C=N/NC(=O)c3ccncc3)c(=O)[nH]c2=O)c1 | 3.5 | 0.7 | . | -0.3% | -1% | -2 | -29
Cc1ccc2nc(-c3ccncc3)cc(C(=O)N3CCC4(CC3)OCCO4)c2c1 | -0.6 | -0.3 | -13% | -0.5% | -3% | 16 | -16

Next section:
mol | Menin MLL FP FL | TRPML1 agonist | ClpP mod | PINK1 modulator | Sfp PPTase inh | TRPML1 blocker | TRPV1 PAM
CCN(CC)c1ccc(CN2CC=C(c3ccc(F)cc3)CC2)cc1 | 1.0 | 0.1 | -2.2% | ? | 5% | 15 | -8
COc1ccc(-n2c(O)c(C=NCCCn3ccnc3)c(=O)[nH]c2=O)cc1 | -0.4 | 0.2 | -2.4% | -0.7% | 9% | -13 | 2
CC(C)(C)c1ccc(OC(=O)N2CCCCC2)cc1 | 0.9 | 0.0 | . | 15% | -1% | -3 | -23
C[C@H](N)CN1CCc2ccc(Br)cc21 | -2.7 | -0.6 | 1.3% | -0.9% | . | 4 | .
Clc1ccccc1NC1=NCCCS1 | -0.1 | -0.3 | . | 3.7% | 15% | 1 | 9
c1cncc(CNCCN2CCNCC2)c1 | . | 0.6 | -1.3% | -0.6% | . | 9 | .
Cc1cc(C(=O)C[N+]23CCN(CC2)CC3)c(C)n1-c1ccc(Br)cc1 | -5.4 | 1.0 | . | -1.2% | 4% | 53 | 2
COC(=O)C1=C(c2ccc(OC)c(OC)c2)C[C@@H]2CC[C@H]1N2C(=O)NC(C)C | . | 0.2 | 0.4% | -0.2% | . | -7 | -7
CCC(C)N1C(=O)/C(=C\c2cc3c4c(c2)CCCN4CCC3)C(=O)NC1=S (stereo not drawn) | 7.5 | 1.6 | -2.3% | 0.3% | ? | 13 | 9
COC(=O)C1=C(c2ccc(OC(F)(F)F)cc2)C[C@@H]2CC[C@H]1N2C(=O)NC(C)C | . | -0.4 | 1.5% | 0.2% | . | 1 | -14
CC(=NC(C)c1ccccc1)c1c(O)[nH]c(=O)[nH]c1=O (stereo not drawn) | -1.8 | 0.4 | 0.1% | -0.3%[38.3 µM] | 23% | -5 | 7
NC(Cc1ccccc1)c1nn[nH]n1 (stereo not drawn) | . | -0.1 | . | 1.5% | . | 20 | .
COC(=O)C1=C(c2ccc(OC(F)(F)F)cc2)C[C@@H]2CC[C@H]1N2C(=O)NCCCOC(C)C | . | 0.6 | 5.3% | 1.0% | . | -10 | -12
CN1CCN(c2ccc(C(N)=O)cc2N)CC1 | 1.5 | -0.9 | ? | -1.2% | 4% | 1 | -3
CCOC(=O)N(c1ccccc1)P1(=S)OCCO1 | 1.7 | -1.7 | -2.4% | 1.5% | 40µM* | 9 | -2
C=COCCn1c(C)c(C(C)=O)c2cc(O)ccc21 | 2.2 | -0.4 | . | -1.0% | -9% | -9 | -11
S=P1(Oc2ccccc2)Nc2ccccc2N1 | . | 0.6 | . | 4.3% | . | -2 | .
CCOC(=O)C1SC2(C(F)(F)F)CC1(O)c1c(C)cc(C)nc1O2 (stereo not drawn) | 1.6 | 1.3 | -1.7% | 6.0%[38.3 µM] | 14% | 16 | 0
O=C1NC(=S)NC(=O)C1C1CCCCC1 | 0.3 | -0.2 | -1.2% | 1.4% | 79µM* | -10 | 7
COP(=O)(OC)C(Nc1ccccn1)c1ccccc1 (stereo not drawn) | 1.7 | -0.3 | -7.9% | -4.1% | 18% | -3 | 7
CC(NC(=O)Cc1cccc2ccccc12)C(=O)N1CCC(=O)CC1 (stereo not drawn) | -0.6 | 1.5 | 2.2% | -0.2% | 5% | -9 | 20
CC(C)C1C(C#N)=C(N)Oc2c1c(=O)oc1ccccc21 (stereo not drawn) | . | 0.2 | 19% | 0.7% | . | -5 | .
CNC(=O)NC(O)C(Cl)(Cl)Cl (stereo not drawn) | 3.1 | 0.9 | 0.1% | 2.9% | 5%&12% | -4 | 6
COC(=O)C1=C(c2ccc(Cl)c(C(F)(F)F)c2)C[C@@H]2CC[C@H]1N2C(=O)N1CCC(C)CC1 | . | 1.0 | -2.8% | 1.8% | . | 9 | -9
O=C(CN1CCCCC1)c1ccc(F)cc1 | 7.0 | 0.9 | 0.2% | 0.3% | 16% | 2 | 13
O=P(O)(CCc1ccccn1)CN1CCCCC1 | -0.3 | 0.5 | -0.1% | -2.3%[38.3 µM] | 10% | -7 | .
Cc1ccc2c(c1)CC1(CN2C)C(=O)NC(=O)N(c2cc(C)ccc2C)C1=O (stereo not drawn) | 3.0 | 0.7 | -0.1% | 8.0% | -7% | -5 | 3
COc1cc(C)c(CN2CC=C(c3ccc(F)cc3)CC2)cc1C | -6.4 | 0.9 | 0.7% | ? | -15% | -8 | 6
CC(C)c1ccc(O)c(CN2CCN(c3ccccc3)CC2)c1 | 2.2 | 0.3 | 0.2% | 0.8% | 8% | -9 | 10
CN=C1CN=C(c2ccc[nH]2)c2cc(Cl)ccc2N1 | . | -0.2 | -8.8% | -1.2% | . | . | .
Cc1ccc(NP(=O)(Oc2ccccc2)Oc2ccccc2)cc1 | . | -0.3 | . | -0.6% | . | -15 | .
OCC1(CO)COC(c2cccnc2)N1 (stereo not drawn) | -2.2 | -0.4 | -1.3% | -23%[38.3 µM] | 14% | -1 | 2
O=C(c1ccc(Cl)cc1)N1CCC2(CC1)OCCO2 | -4.8 | 0.5 | -0.7% | 1.8% | 7% | -23 | -3

Source: PubChem
